Screening data as filed in PubChem BioAssay.
GALR2 ag = GALR2 receptor agonists, primary screen, cell-based. 140,000 compounds, 0.48% hits. GALR2-expressing cells, agonist activation read-out. Galanin receptor type 2 (Homo sapiens), O43603. activation, %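 (tested at 5 µM)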;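 active = above mean plus 3 SD of all compounds, about 5% in these data, not always enough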;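 also: 0% = vehicle buffer wells and 100% = reference agonist at full effect; tested in CHO reporter cells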
PKD1 kinase inh = inhibitors of human PKD1 kinase, biochemical, fluorescence polarization | Serine/threonine-protein kinase D1 (Homo sapiens), Q15139 | inhibition, %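 (about 10 µM by stock and volumes)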 | PKD1 kinase fluorescence polarization assay | 200,000 compounds, 0.056% hits;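 active = inhibition of 50% or more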;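 also: controls were vehicle for no effect and a reference inhibitor for full effect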
Target sequence (Q15139 whole entry, looked up): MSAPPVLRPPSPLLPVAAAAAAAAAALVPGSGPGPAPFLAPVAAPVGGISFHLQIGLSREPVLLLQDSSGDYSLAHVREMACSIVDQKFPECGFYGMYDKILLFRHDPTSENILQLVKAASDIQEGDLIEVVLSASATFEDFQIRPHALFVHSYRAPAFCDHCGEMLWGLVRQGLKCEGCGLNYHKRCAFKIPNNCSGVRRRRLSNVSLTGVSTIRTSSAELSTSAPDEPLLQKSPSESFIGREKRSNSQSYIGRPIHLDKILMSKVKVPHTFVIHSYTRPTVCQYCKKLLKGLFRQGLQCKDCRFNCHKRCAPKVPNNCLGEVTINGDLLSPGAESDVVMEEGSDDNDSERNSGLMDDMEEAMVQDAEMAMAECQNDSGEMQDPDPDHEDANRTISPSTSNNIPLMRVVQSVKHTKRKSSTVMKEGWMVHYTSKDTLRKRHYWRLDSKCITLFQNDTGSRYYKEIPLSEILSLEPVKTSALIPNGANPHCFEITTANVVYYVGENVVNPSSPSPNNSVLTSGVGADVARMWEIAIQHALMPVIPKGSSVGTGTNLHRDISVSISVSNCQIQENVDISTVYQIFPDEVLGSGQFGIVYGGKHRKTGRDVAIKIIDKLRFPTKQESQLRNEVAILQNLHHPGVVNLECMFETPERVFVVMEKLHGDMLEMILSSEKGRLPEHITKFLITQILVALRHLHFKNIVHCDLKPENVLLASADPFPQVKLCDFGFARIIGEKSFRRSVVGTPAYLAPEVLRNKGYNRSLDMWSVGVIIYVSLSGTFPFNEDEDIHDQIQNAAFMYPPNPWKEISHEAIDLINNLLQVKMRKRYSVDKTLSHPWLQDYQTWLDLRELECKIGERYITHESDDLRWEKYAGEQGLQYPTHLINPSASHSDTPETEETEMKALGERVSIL
HSV replic up = enhancers of HSV replication in host cells, fold increase, host cell viability; HSV replication augmentation in cells; 220,000 compounds, 0.005% hits; maximum fold increase; AID 1956, 2009;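 active = peak rise of 1.5-fold or more in the series; inconclusive = self-fluorescent or not available for retest; tested in PC3 cells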;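 also: first round at 10 µM; read as green reporter fluorescence; hits show the peak of a series up to 25 µM; 1 = signal of infected wells without compound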
RGS16-Gao = modulators of RGS16 binding to Galphao, primary screen, biochemical, human proteins, multiplexed bead flow cytometry | 220,000 compounds, 0.38% hits | Regulator of G-protein signaling 16 (Homo sapiens) + Guanine nucleotide-binding protein … | binding response (% of control), % at 10 µM | bead-based flow cytometry RGS16-Galphao binding, fluorescence; actives lie on both sides;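 active = below 25% or above 175%, edge rows of some plates excepted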;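 also: Galphao activated by GDP with aluminum fluoride before binding; 100% = wells without compound and 0% = beads without RGS; some results beyond the cut were filed as inactive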
Insulin prom inh = inhibitors of insulin promoter-driven GFP, primary screen, imaging, TRM-6 cells (human fetal islet line), eGFP reporter, cell count. 130,000 compounds, 0.9% hits. inhibition, % at 2 µM. reporter expression induced with tamoxifen;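 active = inhibition above the mean plus 3 SD, with well images judged a real hit on visual review, cut at about 60% in these data, passing the limit was not always enough; inconclusive = inhibition over the cutoff but images rejected on review; inactive = inhibition not above the cutoff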
Insulin prom inh cell count = also measured in Insulin prom inh; calls as there; normalized cell count, %; measured here: cell count, toxicity; reference of the scale not given here;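 cells exposed to compound for 48 h; stained nuclei by imaging scaled within each plate; lower means fewer cells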
HSV replic up primary fold = further read-out of HSV replic up, marked with its call; fold increase; compound at 10 µM; measured here: primary screen fold increase 10 uM; tested in PC3 cells;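 GFP signal in the first replicate; 1 = infected wells without compound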
Starred values were filed as active, the others as inactive; i = inactive; ? = inconclusive; / = no result given; + = active, no number; & = joins results of further samples; [ ] = another dose, or the depositor's remark.

SMILES	GALR2 ag	PKD1 kinase inh	HSV replic up	HSV replic up primary fold	RGS16-Gao	Insulin prom inh	Insulin prom inh cell count
COc1c(/C=N/Nc2ccc(C(=O)O)cc2)c(CCN(C)C(C)=O)cc2c1OCO2	/	/	i	1	86	/	/
NS(=O)(=O)c1ccc(CNC(=S)NC2CC2)cc1	/	-7	i	1	102	/	/
O=C(O)c1ccc(Cl)c(S(=O)(=O)Nc2ccc3[nH]c(=O)[nH]c3c2)c1	/	/	i	0.97	103	/	/
CCN1/C(=C/C=C/c2oc3ccc(-c4ccccc4)cc3[n+]2CC)Oc2ccc(-c3ccccc3)cc21	/	-7	?	/	+[activator]	i	30
Cc1ccc(S(=O)(=O)N(C)C)cc1NC(=S)NCc1ccco1	/	1	i	1.1	98	18	110
COc1cc(/C=C2\COC/C(=C\c3cc(OC)c(OC)c(OC)c3)C2=O)cc(OC)c1OC	/	/	i	0.64	93	/	/
O=C(CSc1c[nH]c2ccccc12)N1CCCc2ccccc21	-1.6	-1	i	1.1	83	/	/
CSc1nnc(C)c(/C=C/Nc2ccc(C)cc2)n1	-1.5	-15	i	1.2	97	-48	135
CS(=O)(=O)N1CCN(C(=O)c2cc3ccccc3oc2=O)CC1	-1.7	-1	i	0.97	83	12	106
CCN(CC(=O)NC)S(=O)(=O)c1ccc(Br)cc1	-2.1	-4	i	0.84	148	-15	71
COc1cc(CC(=O)Nc2ccc(S(=O)(=O)N(C)C)cc2)cc(OC)c1OC	-1.2	-3	i	1.1	176	/	/
COC(=O)N/N=C(C)\C=C\c1ccco1	-0.6	2	i	1	93	/	/
CCOC(=O)N1CCN(C(=S)NC(=O)C2CCCC2)CC1	/	/	i	1	97	/	/
O=c1c2ccccc2nnn1COc1cccc2ccccc12	/	-3	i	1	104	/	/
CCC(C(=O)Nc1cc(Cl)ccc1OC)c1ccccc1 (centres undefined)	-1.1	8	i	0.93	51	-35	81
Cc1ccc(N2C(S)=C(C#N)C(=O)NC2c2cccs2)cc1 (centres undefined)	-0.5	-5	i	0.97	101	-36	40
CCC/C(O)=C1\C(=O)CCCC1=NCCc1ccc(OCC)c(OCC)c1	/	3	i	0.92	102	-35	104
C=CCn1c(C(CCCC)CC(O)COCCC)n[nH]c1=S (centres undefined)	/	6	i	0.94	105	-13	118
CC(=O)NCCn1c(SCc2cc(=O)n3cc(Cl)ccc3n2)nc2ccccc2c1=O	-2.1	-4	i	0.99	93	/	/
CCCC(C)n1[nH]c(=O)c2c(C)cc(C)nc21 (centres undefined)	0.2	-3	i	0.93	104	-17	88
O=C(Cn1ncc2c(=O)oc3ccccc3c21)N1CCN(C(=O)c2ccco2)CC1	-1.2	13	i	1	96	/	/
O=C1NC(Nc2nccs2)(C(F)(F)F)C(=O)N1CCc1ccccc1 (centres undefined)	-1.6	21	i	0.92	119	/	/
COc1ccc(C2(CNC(=O)c3ccc(C)cc3)CCOCC2)cc1	/	-4	i	0.98	101	/	/
O=c1c2ccccc2sn1-c1cc(S(=O)(=O)N2CCOCC2)ccc1N1CCCC1	0.4	3	i	1	-21*	-54	80
COc1ccc(S(=O)(=O)N2Cc3ccccc3CC2C(=O)Nc2nccs2)cc1 (centres undefined)	-2.1	0	i	1.1	102	3	192
Cc1cc(N2CCCC2)ccc1/C=C1/C(=O)N(C)C(=S)N1C	/	-11	/	/	98	/	/
Cc1cccc2cc(CN(CCCO)C(=O)Nc3ccccc3Cl)c(=O)[nH]c12	-1.4	-2	i	0.92	100	/	/
COc1ccc(/C=C(\C#N)C(=O)Nc2cccnc2)cc1	-1.1	0	i	0.92	105	32	167
Clc1ccc2noc(-c3ccccc3)c2c1	-1.9	-3	i	0.96	99	-29	87
CN(C)C(=O)c1snnc1-c1ccccc1	-2.1	-11	i	0.87	103	-200	75
CC(C)COC(=O)c1cccc2c1-c1ccccc1/C2=N\O	-2.9	-7	/	/	119	-21	102
COc1ccc(-n2c(C)nc3cc(C(=O)N4CCOCC4)ccc32)cc1	-0.6	4	i	0.91	101	6	148
O=C(CSC1CC(=O)N(CCc2ccccc2)C1=O)Nc1ccc(Br)cc1 (centres undefined)	-1.3	2	i	1	83	/	/
O=C(NCC(c1cccs1)N1CCOCC1)c1cc([N+](=O)[O-])cc([N+](=O)[O-])c1 (centres undefined)	-1.7	-9	i	1.1	108	/	/
O=C(Nc1ccccc1)c1n[nH]c(Cn2cncn2)n1	-3.4	-5	i	0.81	104	27	109
O=[N+]([O-])c1ccc(CSc2nc3ccccc3[nH]2)cc1	-0.3	-7	i	0.98	105	/	/
Cc1cc(C)n2nc(Sc3ncccc3[N+](=O)[O-])nc2n1	/	/	i	1	101	/	/
Fc1ccc(CNC(=S)Nc2ccc(Cl)cc2Cl)cc1	-1.4	7	i	1	102	/	/
Cn1nc(C(F)(F)F)c(-c2ccc(Br)cc2)c1NC(=O)c1cccnc1	/	/	i	0.94	102	/	/
Fc1ccc(-n2cc(-c3ccccc3)[n+]3c2SCC3)cc1	/	-3	i	0.92	93	/	/
Cc1c(C(=O)NCc2ccco2)oc2ccc(S(=O)(=O)N3CCC4(CC3)OCCO4)cc12	-0.5	-6	i	0.88	97	39	122
CCOC(=O)N1CCN(C(=O)Cc2cccc3ccccc23)CC1	/	-7	i	0.99	100	/	/
CSCCC(NS(=O)(=O)c1cccs1)C(=O)NCc1ccccc1 (centres undefined)	-1.2	-5	i	0.97	106	-28	86
C[C@@H](C(=O)N[C@@H](Cc1ccccc1)C(=O)O)n1nnc2ccccc2c1=O	/	/	i	0.95	108	/	/
O=C(c1ccc(N2CCN(C3CC(=O)N(Cc4cccs4)C3=O)CC2)cc1)c1cccnc1 (centres undefined)	/	-3	i	1.1	104	29	126
CC(C)COc1ccc(-c2nnc(-c3ccncc3)o2)cc1	-0.8	-13	i	1	100	-15	148
O=C(NC1CCCCC1)N1CCCc2ccccc21	-1.3	-5	i	0.84	108	-88	29
COc1cccc(CNC(=O)CCn2c(=O)oc3ccccc32)c1	-1.1	-2	i	0.77	112	-23	113

4 compounds out of the list above, sorted by their value in RGS16-Gao, largest number first:
smiles	RGS16-Gao
C[C@@H](C(=O)N[C@@H](Cc1ccccc1)C(=O)O)n1nnc2ccccc2c1=O	108
CSCCC(NS(=O)(=O)c1cccs1)C(=O)NCc1ccccc1 (centres undefined)	106
O=C(c1ccc(N2CCN(C3CC(=O)N(Cc4cccs4)C3=O)CC2)cc1)c1cccnc1 (centres undefined)	104
Fc1ccc(CNC(=S)Nc2ccc(Cl)cc2Cl)cc1	102

Continuation:
SMILES	GALR2 ag	PKD1 kinase inh	HSV replic up	HSV replic up primary fold	RGS16-Gao	Insulin prom inh	Insulin prom inh cell count
CC(C)C12CN3CC(C(C)C)(CN(C1)C3c1ccco1)C2=O (centres undefined)	-1.2	-9	i	0.82	102	34	143
Cn1c(O)c(C=Nc2ccc(Br)cc2)sc1=O	/	-2	i	0.97	94	/	/
COC(=O)C1=C(C)NC(=O)NC1c1ccc(-c2ccc(F)cc2)o1 (centres undefined)	/	1	i	0.99	97	6	137
O=C(NCCCCNC(=O)c1ccc(Br)s1)c1ccc(Br)s1	0.4	-7	i	0.89	100	-5	80
CN(C)S(=O)(=O)Nc1cccc(Br)c1	/	/	i	0.83&0.78	102&109	/	/
O=C(O)Cn1c2c(c3ccccc31)CCCC2	-0.4	1	i	1.1	59	-13	92
COC(=O)C(C)N1CCC(=O)c2ccccc2S1(=O)=O (centres undefined)	/	/	i	0.91	94	/	/
Cn1c(-c2sc3cc(C(F)(F)F)cnc3c2-c2cccs2)n[nH]c1=S	/	-5	i	0.98	95	/	/
O=c1[nH]c2ccc([N+](=O)[O-])cc2nc1/C=C(\O)c1ccccc1	/	/	1.6*	1.3*	99	/	/
COc1ccc(/C=C2/CCOC2=O)cc1	0.6	-9	i	0.89	111	9	82
O=C(COc1ccccc1)Nc1nnc(-c2ccc(Cl)s2)o1	-2.3	-11	i	1	104	/	/
Cc1cc(NC(=O)CSc2nccn2-c2ccc(F)cc2)no1	-3.8	3	i	0.84	106	70	97
COc1ccc(-n2nnnc2SCC(=O)NCc2ccco2)cc1OC	-3.8	-9	i	0.86	104	/	/
COc1ccc(C(=O)/C=C/Nc2c(C)n(C)n(-c3ccccc3)c2=O)c(OC)c1	/	-8	i	1	103	0	83
Cc1cccn2c(=O)c(C=O)c(N3CCC4(CC3)OCCO4)nc12	/	/	i	0.99	103	/	/
O=C(NC1CCS(=O)(=O)C1)c1cccnc1 (centres undefined)	/	1	i	0.93	118	0	182
CC(C)c1cccc(C(C)C)c1NC(=O)c1ccccc1	/	8	i	0.94	100	41	119
CC(NC(=S)Nc1ccccc1C(F)(F)F)C1CC2CCC1C2 (centres undefined)	/	0	i	0.91	100	/	/
CNCCCOc1cccc(Oc2ccccc2)c1	/	2	i	0.96	87	/	/
O=S(=O)(N1CCOCC1)N1CCN(c2ccc(F)cc2)CC1	-1.8	-5	i	1	105	3	99
O=C(c1cccnc1)N(c1cc2sc(=O)oc2c2ccccc12)S(=O)(=O)c1ccccc1	-1.7	5	i	1.1	103	12	87
O=C(Nc1nc(-c2ccc(Cl)cc2)cs1)C1CCCO1 (centres undefined)	/	4	i	0.94	101	45	77
CCOc1ccc2[nH]c(=O)c(CN(CCO)C(=O)c3ccc(OC)c(OC)c3)cc2c1	-0.9	3	i	1	99	3	130
O=C1NCCN(C(=O)CCc2nnc(-c3ccsc3)o2)C1c1ccc(F)cc1 (centres undefined)	/	7	i	1.1	102	/	/

A second format for part of the listing above:
Values run as follows: GALR2 ag, PKD1 kinase inh, HSV replic up, HSV replic up primary fold, RGS16-Gao, Insulin prom inh, Insulin prom inh cell count
- O=C(NC1CCS(=O)(=O)C1)c1cccnc1 (centres undefined)
 : /, 1, i, 0.93, 118, 0, 182
- CC(C)c1cccc(C(C)C)c1NC(=O)c1ccccc1
 : /, 8, i, 0.94, 100, 41, 119

Further compounds follow:
SMILES	GALR2 ag	PKD1 kinase inh	HSV replic up	HSV replic up primary fold	RGS16-Gao	Insulin prom inh	Insulin prom inh cell count
COc1ccc(N2CCN(C(CNC(=O)C(=O)NCc3ccncc3)c3ccco3)CC2)cc1 (centres undefined)	/	0	i	0.72	96	/	/
COc1ccc(CCNCC(=O)Nc2ccccc2C(F)(F)F)cc1	/	-4	i	0.94	102	/	/
COc1ccc(-c2c(C(C)=O)c(C)nc3sc4c(=O)[nH]nnc4c23)cc1	0.7	-9	i	0.97	97	-12	129
CC(C)CC(=O)NC(NC(=O)CC(C)C)c1cccc([N+](=O)[O-])c1	/	6	i	0.93	99	-93	125
Cc1ccccc1CSCC(=O)NC(=O)NCc1ccco1	-0.6	-9	i	1	104	-47	109
CCOc1cccc2sc(NN)nc12	/	-7	i	0.98	114	-3	146
O=C(NNC(=O)c1csc(-c2cccnc2)n1)Nc1ccc(Cl)cc1	/	/	i	0.97	107	/	/
CC(C)N1CCC(N2CCN(Cc3cccc4nonc34)CC2CCO)CC1 (centres undefined)	/	-9	i	0.93	93	-30	223
O=[N+]([O-])c1ccc(S(=O)(=O)CC2CSc3nc4ccccc4n32)cc1 (centres undefined)	-1.0	1	i	0.92	100	3	80
O=C(NC1CCN(Cc2ccccc2)CC1)c1cc(Br)c(Br)[nH]1	/	-2	i	0.89	106	/	/
COc1ccc(N2CCN(C(=O)C3CCCO3)CC2)cc1 (centres undefined)	0.1	8	i	1.1	101	17	100
O=C(NC1CCCC1)C(c1ccsc1)N(Cc1ccco1)C(=O)Cc1cccs1 (centres undefined)	-2.5	-20	i	1.1	97	17	43
Cc1ccccc1Nc1nc(N)nc(CSc2nnc3ccccn23)n1	/	2	i	0.78	100	/	/
CCn1c(SCC(=O)c2ccc(F)cc2)nnc1-c1ccoc1C	-3.4	-4	i	0.98	105	-17	133
CCN(C(=O)CSc1nc2ccccc2c(=O)n1-c1cccc(C)c1)C1CCS(=O)(=O)C1 (centres undefined)	/	-5	i	1.7	100	/	/
COCCCNC(=S)N1CCN(c2nc3ccccc3s2)CC1	/	5	i	0.95	89	/	/
CCOc1cccc2cc(C(N)=O)c(=N)oc12	/	/	i	0.86	87	/	/
Cc1cc(C(=O)NNS(=O)(=O)c2ccc(F)cc2)nn1C(C)(C)C	/	/	i	0.91	100	/	/
Cc1cc(O)ccc1C1(c2ccc(O)cc2C)OC(=O)c2ccccc21	-1.1	0	i	0.84	106	-338	123
C=CC[N+]1(CC#Cc2ccccc2)CCCC1	/	-6	i	0.99	103	/	/
